Ecoli growth: E. coli growth inhibition, primary screen, OD600; Escherichia coli growth, 23 h; hits give low values; AID 1053175, 2014; 0.21% of 330,000 active; OD600 absorbance (test concentration not listed);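 active = OD600 absorbance below the run mean of sample wells minus 3.6 SD, in any replicate, cut at about 0.56 in these data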;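 note: stock transfer was 300 nL into about 60 µL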
Numbers without * were called inactive; & = joins results of further samples. An excerpt (hit frequency here may not be typical).

SMILES | Ecoli growth
CCOC(=O)CC1c2cc(F)ccc2S(=O)(=O)N1c1cccc(OC)c1 (stereo unspecified) | 0.66
CCCCOC(=O)c1cc(-c2ccc(C=Nn3cnnc3)o2)ccc1Cl | 0.66
O=C(C1CC=CC2CCN(Cc3ccc(Cl)c(Cl)c3)C(=O)C21)N1CCN(c2ccccc2)CC1 (stereo unspecified) | 0.64
Cc1ccc(CN2CCN(N=Cc3cc([N+](=O)[O-])ccc3Cl)CC2)cc1 | 0.73
O=[N+]([O-])c1ccc(C2CCCCC2=NOCc2cccc(F)c2)c([N+](=O)[O-])c1 (stereo unspecified) | 0.69
COc1ccc(C(=O)c2cnc(N=CN(C)C)s2)cc1 | 0.61
Cc1ccc(CN2CCN(N=Cc3ccc(C(F)(F)F)cc3)CC2)c(C)c1 | 0.69
COc1ccc(C(C)=NNc2nc(C)c(C(C)=O)s2)cc1 | 0.7
COc1ccc(C(=O)NCCCCCC(=O)NN=Cc2ccco2)cc1OC | 0.68
Cc1nn(C)c(C)c1C=NO | 0.68
CCCCC1CNC(=S)N1CC1CCCCC1 (stereo unspecified) | 0.68
CC(C)(C)C1CCC(=O)N(CCC(Sc2ccccc2)c2ccccc2)CC1 (stereo unspecified) | 0.69
Cc1ccccc1C=Nn1c(-c2ccccn2)n[nH]c1=S | 0.7
CC(=NNC(=O)c1ccc(O)cc1O)c1cccnc1 | 0.7
Cc1ccsc1C=NNC(=O)c1nnn(-c2nonc2N)c1CSc1ccccc1 | 0.71
O=C(NN=Cc1ccc2c(c1)OCO2)c1sc2cc(Cl)ccc2c1Cl | 0.72
NC(=O)NN=Cc1ccc(-c2ccc([N+](=O)[O-])cc2)o1 | 0.67
Cc1onc(-c2ccccc2)c1C(=O)NN=Cc1ccco1 | 0.65
CCOc1ccc(C=NNC(=O)Cc2csc(Nc3cccc(C(F)(F)F)c3)n2)c(OCC)c1 | 0.72
COc1cc(C=C2C(=O)ON=C2c2ccccc2)ccc1O | 0.69
Cc1ccc(C2C3C(=O)N(C)C(=O)C3C3C(=O)Nc4ccccc4C(=O)N32)cc1 (stereo unspecified) | 0.69
O=C(NN=Cc1ccc[nH]1)c1ccccc1OCc1ccc(F)cc1 | 0.7
CCOC1OC(C(=O)N2CCN(C)CC2)=CC(c2ccc3c(c2)OCO3)C1CCCO (stereo unspecified) | 0.66
CCCn1c(C=NNc2nc3ccccc3[nH]2)nc2ccccc21 | 0.62
CCOc1ccc(N2C(=O)C(=Cc3ccccc3OCC(=O)OC)N(CC(=O)OC)C2=S)cc1 | 0.74
C=CC1c2cc(C)ccc2N(S(=O)(=O)c2ccc(C)cc2)C(c2ccccc2)C1(C#N)C#N (stereo unspecified) | 0.62
Nc1nonc1C(=O)NN=Cc1ccncc1 | 0.65
CC(CC(=O)Nc1ccc(Cl)c(C(F)(F)F)c1)=NNC(=O)c1cc2ccccc2cc1O | 0.62
CCOC(=O)NN=C(C)/C=C/c1ccccc1 | 0.69
C=CCOc1ccc(C=Nn2nnnc2N)cc1OC | 0.63
O=S(=O)(N=C(c1ccccc1)N1CCCCCC1)c1ccccc1 | 0.7
COc1ccc(C(=O)NN=C(C)CC(=O)Nc2ccc(Cl)cn2)cc1 | 0.67
O=c1nccc(NN=Cc2cccc(O)c2)[nH]1 | 0.68
Cc1ccc(-n2ncc(C#N)c2N=CN(C)C)cc1 | 0.68
CC(=NNC(=S)NCc1ccccc1)c1ccc(Cl)s1 | 0.7
C#CCOCCOCCOCCNc1nc(N2CCN(C(=O)C(CCCCN)n3cc(C(N)CC(C)C)nn3)CC2)nc(N2CCN(C(=O)C(C(C)CC)n3cc(C(N)CO)nn3)CC2)n1 (stereo unspecified) | 0.66

Brought forward from above: three entries, then new ones.
SMILES | Ecoli growth
Cc1ccc(-n2ncc(C#N)c2N=CN(C)C)cc1 | 0.68
CC(=NNC(=S)NCc1ccccc1)c1ccc(Cl)s1 | 0.7
C#CCOCCOCCOCCNc1nc(N2CCN(C(=O)C(CCCCN)n3cc(C(N)CC(C)C)nn3)CC2)nc(N2CCN(C(=O)C(C(C)CC)n3cc(C(N)CO)nn3)CC2)n1 (stereo unspecified) | 0.66
Cc1ccccc1C(=O)ON=Cc1c(N2CCOCC2)n(C)c2ccccc12 | 0.56
C(=NN1CCN(c2ccccn2)CC1)c1cccc2ccccc12 | 0.65
Cc1cccc(C=NN2CCN(c3ccccc3)CC2)c1 | 0.63
C=CCCC(Cc1ccc(F)cc1)C(=O)OCC1CCCN1C(=O)C(CC=C)CC(=O)NC(CO)Cc1ccccc1 (stereo unspecified) | 0.68&0.7&0.71
COc1cc(C=NNC(=O)c2cc(-c3ccccc3)nc3ccccc23)cc(OC)c1O | 0.68
CC(Nc1cccc2ccccc12)C(=O)NN=Cc1ccc([N+](=O)[O-])cc1 (stereo unspecified) | 0.7
CC(C(=O)NCCc1c[nH]c2ccccc12)C1C[C@@]1(C)C(NC(=O)OCc1ccccc1)c1ccccc1 (stereo partly specified) | 0.73
CC(C)c1ccc(C=NNc2ccc(C(=O)O)cc2)cc1 | 0.66
Cc1ccc(-c2ccc(C=Nc3ncn[nH]3)o2)cc1Cl | 0.72
CCCCN1C(=S)NCC1C(C)CC (stereo unspecified) | 0.7
CC(C)CCCC(C)C1CCC2C3C(=O)C=C4CC(O)CC[C@]4(C)C3CC[C@]12C (stereo partly specified) | 0.71
C#CCCc1ccccc1C=[N+](C)[O-] | 0.69
NC(=NOC(=O)c1ccc(F)cc1)c1nonc1N | 0.66
COc1ccc(O)c(C=NNC(=O)CCC(=O)Nc2ccc(C)cc2)c1 | 0.67
Cc1ccsc1C=Nn1cnc2sc(C)c(C)c2c1=O | 0.72
Cc1ccc(N(CC(=O)NN=Cc2ccc(OC3CSC3)cc2)S(=O)(=O)c2ccccc2)c(C)c1 | 0.71
CCOc1ccc(CC(=O)NN=Cc2sccc2C)cc1 | 0.69
C=CCn1c(N=Cc2ccc3c(c2)OCO3)nc2ccccc21 | 0.57
COc1ccc(C=NNC(=O)CN(C2=NS(=O)(=O)c3ccccc32)c2ccccc2)cc1OC | 0.69
O=C(/C=C/c1ccccc1)NCC(=O)NN=Cc1cccnc1 | 0.69
Oc1ccc(C=Nn2c(C3CCCCC3)n[nH]c2=S)c(O)c1 | 0.68
CCOC(=O)C(CC)C(C)=NNC(=O)c1ccccc1O (stereo unspecified) | 0.66
COc1ccc2ccccc2c1C=NNC(=O)c1ccccc1F | 0.65
CCc1ccc(C(=O)NN=Cc2ccncc2)s1 | 0.66

Not a retest: 5 of the compounds above.
SMILES | Ecoli growth
O=C(/C=C/c1ccccc1)NCC(=O)NN=Cc1cccnc1 | 0.69
Oc1ccc(C=Nn2c(C3CCCCC3)n[nH]c2=S)c(O)c1 | 0.68
CCOC(=O)C(CC)C(C)=NNC(=O)c1ccccc1O (stereo unspecified) | 0.66
COc1ccc2ccccc2c1C=NNC(=O)c1ccccc1F | 0.65
CCc1ccc(C(=O)NN=Cc2ccncc2)s1 | 0.66

(further entries)
SMILES | Ecoli growth
Cc1ccc(C=Nc2sc3c(c2C#N)CCCCC3)o1 | 0.71
COc1cc(C=NNC(=O)[C@H](Cc2c[nH]c3ccccc23)NC(=O)OCC(C)C)cc([N+](=O)[O-])c1O | 0.7
CC1C=C(C(=O)N2CCN(Cc3ccc4c(c3)OCO4)CC2)OC(OCc2ccc(CO)cc2)C1 (stereo unspecified) | 0.7
Cc1nnc(C)n1N=Cc1cccn1C | 0.79
Cc1ccccc1C(=O)NN=C1SCC(=O)N1Cc1ccc2c(c1)OCO2 | 0.65
Fc1ccc2cnc(CCOC3CCCCO3)cc2c1 (stereo unspecified) | 0.65
O=C(NN=Cc1ccc(-c2ccccc2[N+](=O)[O-])o1)[C@H]1C[C@@H]1c1ccccc1 | 0.72
Cn1c(=O)n(C)c2cc(C=N/N=C3/NC(=O)C(CC(=O)O)S3)ccc21 (stereo unspecified) | 0.66
N#CCC(=O)NN=Cc1cc(Br)ccc1OCc1cccc2ccccc12 | 0.69
O=[N+]([O-])c1cccc(C=NNc2nc(NCc3ccccc3)nc(N3CCOCC3)n2)c1O | 0.68
CC1(C(=O)N2CC3(CC(c4cccc([N+](=O)[O-])c4)=NO3)CC2C(=O)NCC(N)=O)CC1 (stereo unspecified) | 0.7
CCOC(=O)CC1c2ccccc2S(=O)(=O)N1c1ccccc1 (stereo unspecified) | 0.67
CCOC(=O)C=C1CN(CCC(C)C)S(=O)(=O)c2ccccc21 | 0.66
C/C(C=NNC(=O)c1nnn(-c2nonc2N)c1C(C)C)=C\c1ccco1 | 0.69
C=CCn1c(COc2ccccc2)nnc1SCC(=O)NN=Cc1cc(Cl)ccc1O | 0.76
CC1CN(C(C)CO)C(=O)Cc2cc(NS(=O)(=O)c3cn(C)cn3)ccc2OC1CN(C)C(=O)Nc1ccc(F)cc1 (stereo unspecified) | 0.68
CN(C)c1ccc(C=NN=C(N)N)cc1[N+](=O)[O-] | 0.66
CC(=O)C=NNc1ccccc1 | 0.69
COc1ccc2c(c1)CCCC2=NOC(=O)c1ccccc1OC | 0.71
Cc1oc(N=Cc2ccc(F)cc2)c(C#N)c1C | 0.68
CC(C)CC(NC(=O)c1nc[nH]c1C(=O)NC(CC(C)C)C(=O)OC(C)(C)C)C(=O)OC(C)(C)C (stereo unspecified) | 0.64
CCOc1ccc2[nH]c(C(=O)NN=Cc3cc(OC)c(OC)c(OC)c3)cc2c1 | 0.61
CCCn1c(=O)c(C(=O)NN=Cc2ccc(F)cc2)c(O)c2ccccc21 | 0.66
CCN(CC)c1ccc(C=NNc2cccc(C)c2)c(O)c1 | 0.66

Laid out differently: results already given
compound	Ecoli growth
CCOC(=O)CC1c2cc(F)ccc2S(=O)(=O)N1c1cccc(OC)c1 (stereo unspecified)	0.66
CCCCOC(=O)c1cc(-c2ccc(C=Nn3cnnc3)o2)ccc1Cl	0.66

Remaining list, next part.
SMILES | Ecoli growth
CCOC(=O)C1C2COc3ccc(Cl)cc3C2N2C(=O)CN(Cc3ccccc3)C(=O)[C@@]12C (stereo partly specified) | 0.69
O=C(NN=Cc1ccc(O)cc1)c1cccc(C(F)(F)F)c1 | 0.71
CC(NC(=O)NC1CCCc2ccccc21)C(=O)O (stereo unspecified) | 0.69
Cc1ccc(C2C3C(=O)N(c4ccccc4)C(=O)C3[C@]3(C)C(=O)N(Cc4ccc(-c5ccccc5)cc4)CC(=O)N23)o1 (stereo partly specified) | 0.68
CC(=N/N=C1\NC(=O)C(C)S1)c1ccco1 (stereo unspecified) | 0.72
CCC(=O)NN=C(C)CC(=O)Nc1cc(Cl)ccc1C | 0.72
Fc1ccccc1C=NN1CCN(Cc2ccccc2Cl)CC1 | 0.64
Cc1cccc(NC(=O)CCC(=O)NN=Cc2cccnc2)c1 | 0.7
Nc1nonc1-n1nnc(C(=O)NN=Cc2ccc(O)cc2)c1CN1CCCCCC1 | 0.71
COc1cccc(C(=O)ON=C(C)c2cnccn2)c1 | 0.73
CC(=O)C1=C(C)N(CC2CC2)C(=O)NC1c1cccs1 (stereo unspecified) | 0.66
COc1ccc(C2C(=C(O)c3ccc4c(c3)CC(C)O4)C(=O)C(=O)N2CCN2CCOCC2)cc1 (stereo unspecified) | 0.7
Cc1ccc(C=NNC(=O)c2cccnc2)o1 | 0.69
COC(=O)c1ccc(C=NNC(=O)CC(=O)NCCc2ccccc2)cc1 | 0.73
CCOC(=O)C1=C(O)C(=Cc2cc(OC)c(OC)c(OC)c2)N=C1C | 0.7
COc1cccc(C=NNC(=O)c2cc3c(OC)c(OC)ccc3[nH]2)c1OC | 0.7
CC12CCC(C(=O)Nc3ccccc3)(CC1=NO)C2(C)C (stereo unspecified) | 0.62
Nc1nonc1C(=O)NN=Cc1cc(Br)ccc1O | 0.58
COC(=O)C1=CC(C(=O)OC)C2C3=C(C(=O)C24CCCCC4)C(C)n2c(=O)n(C)c(=O)n2C3C1 (stereo unspecified) | 0.7
CCN1C(=O)C2C(c3ccc(-c4ccccc4)c(OC)c3)N[C@@](Cc3ccccc3)(C(=O)OC)C2C1=O (stereo partly specified) | 0.75
Cc1cccc(C(=O)Nc2ccc(C(=O)NN=Cc3ccco3)cc2)c1 | 0.73
CC(=NNC(=S)NC1CCCCC1)c1ccc(O)cc1 | 0.71
O=C(CSc1nnc(SCc2ccc(Cl)cc2)s1)NN=Cc1ccc(C(=O)O)cc1 | 0.66
CC(=NNS(=O)(=O)c1cc(C)ccc1C)c1ccc2c(c1)OCO2 | 0.71
O=C(NN=Cc1cc(Cl)ccc1O)c1ccc(S(=O)(=O)N2CCCCC2)cc1 | 0.69
CC1CCC(=O)N(CC(C)CSc2ccc(Br)cc2)CC1 (stereo unspecified) | 0.67
CCN1C(=Cc2ccc3ccccc3[n+]2CC)C=Cc2ccccc21 | 0.49*
COc1ccc(C=NNC(=O)c2cccc3ccccc23)c(OC)c1OC | 0.66
COC(=O)c1nn(-c2ccccc2)c(Sc2ccc(OC)cc2)c1C=NO | 0.72
C(=NNc1nccc(-c2cccnc2)n1)c1ccccc1 | 0.6
O=C(NN=C/C(Br)=C/c1ccccc1)c1ccccc1F | 0.56
ON=Cc1ccccc1Oc1ccccc1 | 0.73
O=C(NN=Cc1ccccc1)c1[nH]c2ccc(Br)cc2c1-c1ccccc1 | 0.69
CC(C)(C)c1cc(C=NNC(=O)Cc2nc3ccccc3[nH]2)cc(C(C)(C)C)c1O | 0.73
CCC(C)C(C)=NNC(=O)CSc1nc2ccccc2[nH]1 (stereo unspecified) | 0.64
COC(=O)[C@]1(Cc2ccccc2)NC(c2ccc(-c3cccc(Cl)c3)c(OC)c2)C2C(=O)N(C)C(=O)C21 (stereo partly specified) | 0.77
CON=Cc1cc([N+](=O)[O-])ccc1Sc1ccc(C)cc1 | 0.71
CCCCNC(=O)N(O)C1N(N=Cc2ccco2)C(=S)SC1(C)C (stereo unspecified) | 0.73
COc1cc(C=NNC(=O)COc2ccc(Cl)cc2)ccc1OS(=O)(=O)c1ccc(C)cc1 | 0.73
